High-throughput results from PubChem BioAssay.
gsp antagonist: antagonists of gsp mutant (McCune-Albright syndrome); gsp-mutant cells, cAMP HTRF, 30 min; control for the full effect not named in the record; Potency, µM (highest dose often 76.9 µM), for the others: top-dose activity change, negative = inhibition, hits mostly inhibitors; 0.4% of 340,000 active; active = falling curve of any shape with a large fitted effect; inconclusive = falling curve, mostly with a smaller effect; inactive = flat or rising curve; cell line not stated here;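 also: intracellular cAMP measured with PDE inhibitor Ro 20-1724 present during compound exposure; potency is read from the fitted curve at half-maximal effect; % is scaled to controls: 0 for no effect and ±100 for the full control effect; nearly all actives have a fitted effect of over 65% in size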
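Cells in G418 medium, seeded 16-24 h, 37C; buffer exchange to DPBS + 1 mM CaCl2, 0.5 mM MgCl2, 0.05% BSA; cpds in DMSO + […] (300 uM stock), 30 min 37C; HTRF cAMP detection.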
TRPML1 ag: human mucolipin-1 channel agonism | Q9GZU1 | TRPML1-expressing cells, Ca2+ dye fluorescence, FDSS; host cell line not named in the record; reference of the full effect not given here | activation, % (test concentration not listed) | 0.12% of 410,000 active | AID 624414; in the data active = activation above about 50%; inconclusive = about 30% to 50%; inactive = below about 30%; also: 0% is about no effect; the text of the record puts the active cut at 80%
Target sequence (Q9GZU1 whole entry, looked up): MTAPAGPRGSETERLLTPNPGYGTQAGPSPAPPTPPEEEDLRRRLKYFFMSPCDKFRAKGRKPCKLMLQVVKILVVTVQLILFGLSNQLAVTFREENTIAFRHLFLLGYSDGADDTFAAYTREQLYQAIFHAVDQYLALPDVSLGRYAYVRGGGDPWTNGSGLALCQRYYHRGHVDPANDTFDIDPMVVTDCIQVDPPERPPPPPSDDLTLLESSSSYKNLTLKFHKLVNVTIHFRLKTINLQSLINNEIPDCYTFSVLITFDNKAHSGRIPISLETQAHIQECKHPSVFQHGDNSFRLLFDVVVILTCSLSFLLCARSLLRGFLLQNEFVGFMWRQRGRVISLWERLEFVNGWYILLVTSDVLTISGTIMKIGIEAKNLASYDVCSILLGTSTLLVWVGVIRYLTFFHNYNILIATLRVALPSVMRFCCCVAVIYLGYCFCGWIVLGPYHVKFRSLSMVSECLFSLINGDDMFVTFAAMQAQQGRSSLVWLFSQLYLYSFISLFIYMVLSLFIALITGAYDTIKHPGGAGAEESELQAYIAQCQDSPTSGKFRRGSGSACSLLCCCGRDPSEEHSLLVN
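In this qHTS format, compounds were pin-transferred onto Ca8-dye-loaded TRPML1-DL cells induced with Tet overnight, and intracellular Ca2+ fluorescence was recorded kinetically for 110 s after a 10 s baseline. A subsequent 4uM final 54-4 (EC80) addition followed by a second 110 s read served as the antagonist phase.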
Menin MLL FP FL: inhibitors of human menin-MLL interaction, wild-type MLL peptide; Fluorescence polarization, fluorescein-MLL peptide displacement from menin; FP activity change, % at 61.4 µM; 290,000 tested, under 10 active; AID 1766; inconclusive = falling polarisation curve, or a change in total fluorescence; inactive = total fluorescence flat and polarisation flat or rising; no compound was filed as active; the % refers to the polarisation; negative = inhibition;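 also: % of control where 0% means no effect; inhibitors lower the polarisation; unlabelled MLL peptide was the positive control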
gsp ag: agonists of gsp mutant (McCune-Albright syndrome); 0.13% of 340,000 active; gsp mutant cells, cAMP HTRF, 30 min; control for the full effect not named in the record; Potency, µM (series often up to 76.9 µM), for inactives: at the top dose activation (cAMP increase), hits mostly activators; AID 624287; active = well fitted activation curve with a large enough effect; inconclusive = small, poorly fitted or top-dose-only effect, or another doubt; inactive = no such curve, though single readings can be large or run the other way; cell line not stated here;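 also: phosphodiesterase inhibitor Ro 20-1724 added with compounds to block cAMP breakdown; potency is read from the fitted curve at half-maximal effect; nearly all actives have a fitted effect of over 60% in size; about a fifth of the inactives were tested at one dose only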
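Cells stably selected in G418 were plated at 2000/well, grown 16-24 hr, then given compounds in DMSO with the PDE inhibitor […] (300 uM solution added) for 30 min at 37C; cAMP was read by HTRF.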
TRPML1 blocker: blocks the human TRPML1 channel. Q9GZU1. TRPML1-inducible cells, Ca2+ dye fluorescence, FDSS; active compounds read low; inhibition of EC80 agonist-evoked calcium signal. activity change, negative = inhibition, % (concentration not given with the values). 0.02% of 390,000 active. AID 624415; in the data active means activity change below about -50%; inconclusive means about -30% to -50%; inactive means above about -30%;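 also: stimulus is agonist 54-4 at its EC80 concentration; % is scaled to controls: 0 for no effect and ±100 for the full control effect; the text of the record puts the active cut at -80%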
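Calcium fluorescence in TRPML1-DL cells induced overnight with Tet: a 110 s read after compound pin addition, then a 110 s antagonist read after challenge with 54-4 at 4 uM final (EC80).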
ClpP mod: qHTS Assay for Activators of ClpP; AID 651965, 2013; Potency, µM (series often up to 57.5 µM), for inactives: top-dose activity change, negative = active; 1.9% of 340,000 active; ATP-dependent Clp protease proteolytic subunit (Bacillus subtilis (strain 168)), P80244; purified B. subtilis ClpP, FRET peptide cleavage, 20 min; active = well fitted falling curve with a large enough effect; inconclusive = small, poorly fitted or top-dose-only effect; inactive = no such curve, though single readings can be large or run the other way; also: potency is read from the fitted curve at half-maximal effect; the source files actives as falling curves though it sought activators and does not explain the sign; nearly all actives have a fitted effect of over 65% in size; many hits overshoot -100%
Target sequence (P80244 whole entry, looked up): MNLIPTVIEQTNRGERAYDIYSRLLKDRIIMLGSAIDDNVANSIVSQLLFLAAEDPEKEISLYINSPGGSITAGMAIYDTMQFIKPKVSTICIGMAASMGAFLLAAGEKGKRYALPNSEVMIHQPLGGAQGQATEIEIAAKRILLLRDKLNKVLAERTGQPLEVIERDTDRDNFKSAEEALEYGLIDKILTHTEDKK
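Buffer: 100 mM Tris/HCl pH8, 100 mM KCl, 0.05% low protease BSA, 2.5% glycerol, 0.01% Tween-20. ClpP 10 microg/mL final; 20 min RT; delta FRET normalized to ADEP and DMSO controls.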
An asterisk follows results filed as active; ? = inconclusive; . = not tested or not shown; & = joins results of further samples; [ ] = remark or other dose.

Fields: gsp antagonist	TRPML1 ag	ClpP mod	TRPML1 blocker	gsp ag	Menin MLL FP FL
CCCCNC(=O)C(CC)Sc1nc2sc(C(=O)OC)c(C)c2c(=O)n1N (configuration not stated)
  29%	0.0	-10%	5	?	0.7
O=C(O)C1=C[C@H](c2ccc(C(F)(F)F)cc2)C[C@H](OCc2ccc(CO)cc2)O1
  -6%	-0.3	1.8%	12	4%	0.3
CCN(CC)c1ccc(-c2nc(-c3ccco3)no2)cc1[N+](=O)[O-]
  .	0.1	-1.7%	24	.	.
CCOc1ccc(N2C(=O)CC(N(CCc3ccc(OC)cc3)C(=O)c3cccc(F)c3)C2=O)cc1 (configuration not stated)
  -3%	0.6	2.0%	4	-49%	2.5
Cc1ccc(N2CC(C(=O)Nc3cccc(F)c3)CC2=O)cc1 (configuration not stated)
  5%	0.4	-4.3%	-10	0%	0.9
Cc1cc(C)c(C)c(S(=O)(=O)N2CCN(c3ccc(O)cc3)CC2)c1C
  .	0.1	.	11	15%[15.4 µM]	-3.9
C=CCn1c(SCC(=O)NC2CCCCC2)nc2ccccc2c1=O
  19%	-0.2	0.3%	36	-1%[15.4 µM]	-3.2
CCCC1SCC(C)(C)NC1=O (configuration not stated)
  -1%	-0.1	-6.9%	-23	-4%	.
CC(C)(CO)CNC1CCCN(C2Cc3ccccc3C2)C1 (configuration not stated)
  3%	-0.2	.	-8	-26%	-0.5
NC(=O)SC/C(=N\S(=O)(=O)c1ccccc1)Nc1ccccc1
  1%	-0.6	0.7%	-5	-5%	-0.7
C=CCn1c(SC(F)F)nc2scc(-c3ccco3)c2c1=O
  -14%	-0.6	.	-7	4%	-7.2
CCOC(=O)CCc1c(C)c(C#N)c2nc3ccccc3n2c1-n1ccnc1
  -2%	0.6	-0.6%	5	1%	0.8
O=C(COc1cccnc1[N+](=O)[O-])NCc1ccccc1
  9%	.	0.1%	.	-20%	-2.9
CC1=C(C(=O)Nc2ccc(Cl)cc2)C(c2ccncc2)C(C#N)=C(SCC(N)=O)N1 (configuration not stated)
  ?	0.3	-1.1%	-5	-9%	2.8
CCOc1ccc(CNC(=O)C2CCN(S(=O)(=O)CC)CC2)cc1OC
  6%	-0.6	1.1%	-6	?	-2.9
CCC(=O)NCCc1c[nH]c2ccccc12
  12%	-0.7	-6.5%	-5	-17%	2.9
COc1ccc(-n2ncc(C(=O)Nc3ccc4c(c3)OCCO4)c2C2CCN(C(=O)OC(C)(C)C)CC2)cc1
  .	1.4	-4.3%	-12	.	.
CNc1oc(C)nc1S(=O)(=O)c1ccc(C)cc1
  2%	0.6	-1.5%	-9	?	1.1
CC(C)NC(=O)c1cc(-c2ccco2)nn1-c1ccc(Cl)cc1
  -8%	0.3	-7.0%	-6	11%	7.2
COc1cc(OC)cc(-c2c(C#Cc3ccsc3)c3cc(-c4ccc(C(N)=O)cc4)ccc3n2C)c1
  4%	0.1	4.3%	-3	?	.
COc1ccc(CCn2nnnc2CN2CCN(C(=O)c3ccco3)CC2)cc1OC
  12%	0.0	.	18	-20%	0.7
O=C(Nc1ccc(F)cc1)c1nn(-c2ccccc2)c(=O)cc1Cl
  .	-0.4	.	-11	8%[15.4 µM]	-5.8
COc1ccccc1N1C(=O)C2C3C=CC(C3)C2C1=O (configuration not stated)
  3%	-0.4	-0.9%	49	29%	1.5
CCOc1ccc(N2C(=O)CC(Sc3n[nH]c(-c4ccccc4)n3)C2=O)cc1 (configuration not stated)
  3%	0.2	-0.4%	-8	-46%[inhibitor]	5.7
COC(=O)c1c(C)nn(-c2ccc(OC(F)(F)F)cc2)c1-c1snnc1C
  ?	0.4	1.6%	2	-15%[15.4 µM]	3.2
O=C(NC1CCN(Cc2ccccc2)CC1)c1ccc(Cn2c(=O)c3ccccc3n(Cc3ccc(F)cc3)c2=O)cc1
  .	0.6	-16%	-24	.	.
COc1ccc(OC2C(=O)N(c3cc(C)ccc3C)C2c2ccc(OC)c(OC)c2)cc1 (configuration not stated)
  -6%	3.6	-1.0%	15	-36%[inhibitor]	-1.5
COc1ccc(C2Nc3ccccc3C(=O)N2Cc2ccccc2)cc1 (configuration not stated)
  ?	0.2	4.0%	6	-9%	-4.9
Cc1c(C=O)c(Cl)n(C)c(=O)c1C#N
  11%	0.6	.	8	22%[15.4 µM]	?
Cc1ccc(/C=c2\sc3nc(-c4cccnc4)nn3c2=O)cc1
  5%	0.6	14µM*	-5	-3%	?

Given as a markdown table: entries from further up
| SMILES | gsp antagonist | TRPML1 ag | ClpP mod | TRPML1 blocker | gsp ag | Menin MLL FP FL |
| --- | --- | --- | --- | --- | --- | --- |
| O=C(Nc1ccc(F)cc1)c1nn(-c2ccccc2)c(=O)cc1Cl | . | -0.4 | . | -11 | 8%[15.4 µM] | -5.8 |
| COc1ccccc1N1C(=O)C2C3C=CC(C3)C2C1=O (configuration not stated) | 3% | -0.4 | -0.9% | 49 | 29% | 1.5 |
| CCOc1ccc(N2C(=O)CC(Sc3n[nH]c(-c4ccccc4)n3)C2=O)cc1 (configuration not stated) | 3% | 0.2 | -0.4% | -8 | -46%[inhibitor] | 5.7 |

(further entries)
Fields: gsp antagonist	TRPML1 ag	ClpP mod	TRPML1 blocker	gsp ag	Menin MLL FP FL
Cc1cc(C)cc(N2C(=O)CSC2c2cccs2)c1 (configuration not stated)
  -1%	0.4	0.3%	2	17%	4.0
CCOc1cc(/C=C(\C#N)C(=O)NCC2CCCO2)ccc1O (configuration not stated)
  3%	-1.1&0.5	2.3%&1.3%	2&-2	-3%	19
CN(c1ccc(C(=O)N2CCN(Cc3ccc4c(c3)OCO4)CC2)cc1)S(=O)(=O)c1ccccc1
  -11%	1.5	1.4%	-7	-4%	5.6
CCCc1[nH]nc2c1C(c1ccsc1)C(C#N)=C(N)O2 (configuration not stated)
  4%	-0.9	.	-10	1%[15.4 µM]	0.2
O=C(CCS(=O)(=O)c1cc2c(cc1Cl)NC(=O)CO2)NCCc1ccccc1
  5%	-0.4&0.9	-1.5%&0.2%	12&1	?	.
CC1CC(C)CN(c2cc(=O)n(Cc3ccc(F)cc3)c(=O)[nH]2)C1 (configuration not stated)
  -1%	0.0	-5.2%	-7	-78%[inhibitor]	-1.1
O=C(Cc1ccccc1)Nn1cnc2ccccc21
  1%	0.5	-0.9%	-1	6%	3.5
CC1(C)CC(=O)C2=C(C1)N(c1cccc(Cl)c1)C(=O)NC2(C(F)(F)F)C(F)(F)F
  -4%	-1.8	-2.9%	10	3%	4.4
Cc1nc(N)sc1N=Nc1c(C)n(C)n(-c2ccccc2)c1=O
  -18%	0.0	.	20	3%	1.1
O=C(CCNS(=O)(=O)c1ccc(Cl)cc1)N1CCN(c2ccccn2)CC1
  -4%	1.2	.	-9	-8%	1.2
CCS(=O)(=O)NCc1csc(-c2ccccc2)n1
  11%	-0.3	-1.0%	-7	-19%	0.1
Cc1nc2sc(-c3ccccc3)cc2c(=O)n1/N=C/N(C)C
  -3%	0.2	.	13	2%	12
COc1ccc(C2c3cc(OC)c(OC)cc3CCN2S(C)(=O)=O)cc1OC (configuration not stated)
  -2%	0.9	.	-22	?	1.6
CCc1ccc(C(=O)NNC(=O)C2CCN(c3ncnc4sc(C)c(C)c34)CC2)cc1
  -20%	3.6	.	-11	17%[15.4 µM]	.
O=C(C[C@@H]1C/C=C\CC[C@@H](Cc2ccc(F)cc2)C(=O)OC[C@@H]2CCCN2C1=O)NCCO
  1%	-0.3	1.4%	17	-9%	.
Cc1ccc(CNC(=O)c2cnc(N3CCCCC3)c3ccccc23)cc1
  .	0.6	?	16	.	.
O=C(NN=C1c2ccccc2-c2ccccc21)c1ccccc1Br
  -27%	0.4	-1.2%	-9	28%	1.4
Cc1noc(C)c1S(=O)(=O)N(CC(=O)N1CCCCCC1)c1ccc(C(C)C)cc1
  -11%	-0.4	0.5%	4	-46%[inhibitor]	1.2
Cc1ccc(NC(=S)c2nc3ccccc3[nH]2)c(C)c1
  -5%	1.9	2.3%	24	15%	0.7
O=C(NCc1nc(-c2ccc(C(F)(F)F)cc2)no1)c1cccs1
  4%	0.3	-1.1%	-12	-44%[inhibitor]	20
CCc1ccccc1NC(=O)CSc1nnc(Cn2cnc3ccccc32)o1
  3%	-0.1	-0.3%	-1	0%	0.4
CSc1ccc(S(=O)(=O)Nc2ccc3c(c2)NC(=O)CC3)cc1
  0%	-0.9	.	3	-1%[15.4 µM]	4.9
O=C(CSc1nnc(NC2CCCCC2)s1)NN1C(=O)NC2(CCCCC2)C1=O
  6%	0.5	-2.0%	-13	-11%	5.0
O=C(O)C1C2C=CC(C2)C1C(=O)NCc1ccco1 (configuration not stated)
  14%	3.8	3.3%	34	-53%[inhibitor]	-2.0
N#Cc1ccc(C(=O)Nc2cc(S(=O)(=O)N3CCOCC3)ccc2N2CCCC2)cc1
  -2%	1.8	0.7%	13	-34%[inhibitor]	.
CCN(C(=O)CSc1cc(-c2ccccc2)c2ccc(OC)cc2n1)C1CCS(=O)(=O)C1 (configuration not stated)
  -6%	2.2	-30%	41	2%	7.6

4 entries picked at random from the list so far:
Fields: gsp antagonist	TRPML1 ag	ClpP mod	TRPML1 blocker	gsp ag	Menin MLL FP FL
O=C(O)C1=C[C@H](c2ccc(C(F)(F)F)cc2)C[C@H](OCc2ccc(CO)cc2)O1
  -6%	-0.3	1.8%	12	4%	0.3
CC1CC(C)CN(c2cc(=O)n(Cc3ccc(F)cc3)c(=O)[nH]2)C1 (configuration not stated)
  -1%	0.0	-5.2%	-7	-78%[inhibitor]	-1.1
Cc1noc(C)c1S(=O)(=O)N(CC(=O)N1CCCCCC1)c1ccc(C(C)C)cc1
  -11%	-0.4	0.5%	4	-46%[inhibitor]	1.2
Cc1cc(C)cc(N2C(=O)CSC2c2cccs2)c1 (configuration not stated)
  -1%	0.4	0.3%	2	17%	4.0
